Bioassay records deposited in PubChem by National Center for Advancing Translational Sciences (NCATS).
ClpP mod = qHTS Assay for Activators of ClpP. purified B. subtilis ClpP, FRET peptide cleavage, 20 min. Potency, µM (top dose mostly 57.5 µM), for inactives: top-dose activity change, negative = active. 1.9% of 340,000 active. AID 651965, 2013; active = well fitted falling curve with a large enough effect; inconclusive = small, poorly fitted or top-dose-only effect; inactive = no such curve, though single readings can be large or run the other way; further: potency means the concentration at half of the fitted maximal effect; the source files actives as falling curves though it sought activators and does not explain the sign; nearly all actives have a fitted effect of over 65% in size; many hits overshoot -100%
Target sequence (P80244 whole entry, looked up): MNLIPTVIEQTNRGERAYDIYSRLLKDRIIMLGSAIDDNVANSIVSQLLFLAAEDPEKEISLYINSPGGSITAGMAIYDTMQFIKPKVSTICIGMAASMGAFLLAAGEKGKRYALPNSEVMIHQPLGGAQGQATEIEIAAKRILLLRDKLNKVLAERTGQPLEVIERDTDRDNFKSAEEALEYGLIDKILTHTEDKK
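Purified B. subtilis ClpP, 10 microg/mL final in Tris/HCl pH8 with KCl, BSA, glycerol and Tween-20, cleaved an Abz/nitrotyrosine-quenched decapeptide. Fluorescence (ex 320, em 430) was read at 0 and 20 min at room temperature. Delta was normalized to 5.8 microM ADEP and DMSO/no-enzyme controls.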
gsp antag = antagonists of gsp mutant (McCune-Albright syndrome); gsp-mutant cells, cAMP HTRF, 30 min; control for the full effect not named in the record; Potency, µM (titrated, usually from 76.9 µM), without a hit: top-dose activity change, negative = inhibition, most hits filed as inhibitors; 0.4% of 340,000 active; AID 624288; active = falling curve of any shape with a large fitted effect; inconclusive = falling curve, mostly with a smaller effect; inactive = flat or rising curve; cell line not stated here;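 further: intracellular cAMP measured with PDE inhibitor Ro 20-1724 present during compound exposure; potency means the concentration at half of the fitted maximal effect; on the % scale 0 is the no-effect control and ±100 the full control effect; nearly all actives have a fitted effect of over 65% in size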
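Cells, 2000/well, grown 16–24 h in DMEM 10% FBS with 0.5 mg/ml G418, then compounds plus […] (300 uM addition stock), 30 min at 37C. cAMP read by HTRF (cAMP-d2 and anti-cAMP antibody-K in lysis buffer) after 30 min RT.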
gsp agonist = activates gsp, the McCune-Albright syndrome mutation. gsp mutant cells, cAMP HTRF, 30 min; control for the full effect not named in the record. Potency, µM (top dose mostly 76.9 µM), inactives show top-dose activation (cAMP increase), hits mostly activators. 0.13% of 340,000 active. AID 624287; active = well fitted activation curve with a large enough effect; inconclusive = small, poorly fitted or top-dose-only effect, or another doubt; inactive = no such curve, though single readings can be large or run the other way; cell line not stated here;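 further: phosphodiesterase inhibitor Ro 20-1724 added with compounds to block cAMP breakdown; potency means the concentration at half of the fitted maximal effect; nearly all actives have a fitted effect of over 60% in size; about a fifth of the inactives were tested at one dose only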
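Cells in DMEM/10% FBS with G418 were pretreated with compounds in DMSO plus […] (300 uM stock) for 30 min at 37C. cAMP was measured by HTRF (cAMP-d2 plus anti-cAMP antibody-K) after 30 min at room temperature.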
PINK1 expr mod = changes PINK1 expression. PINK1 immunofluorescence, high-content cytometry, 24 h. Potency, µM (series often up to 76.6 µM), for the others: top-dose activation (PINK1 increase), hits mostly activators. 0.2% of 410,000 active; active = well fitted activation curve with a large enough effect; inconclusive = small, poorly fitted or top-dose-only effect; inactive = flat fitted curve, though single readings scatter; cell line not stated here;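 further: potency means the concentration at half of the fitted maximal effect; % of control where 0% means no effect; nearly all actives have a fitted effect of over 65% in size; a mitochondrial uncoupler was the plate control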
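PINK1 protein level read as immunofluorescence by microplate cytometer in a fixed, stained stable cell line after 24 h exposure to five compound concentrations, with CCCP as control.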
Sfp inh = inhibitors of Bacillus subtilis Sfp phosphopantetheinyl transferase. Biochemical Sfp PPTase activity, qHTS. Potency, µM, inactives show max response, negative = inhibition, usual class: inhibitors. Q9F4F7. 3.5% of 310,000 active; active means well fitted inhibition curve with a large enough effect; inconclusive means small, poorly fitted or top-dose-only effect, or another doubt; inactive means no such curve, though single readings can be large or run the other way;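 further: the enzyme is Sfp with the accession as filed and its product quenches rhodamine fluorescence; potency means the concentration at half of the fitted maximal effect; 0% = enzyme reaction without inhibitor and -100% = no enzyme wells; top concentration of the series not given in the record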
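Compounds were incubated with enzyme (final 15 nM) for 15 min at room temperature before substrate addition started the reaction. Fluorescence at 525 nm excitation, 598 nm emission was recorded immediately and after 30 minutes.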
Menin-MLL FL inh = menin-MLL binding inhibition, fluorescein peptide; Fluorescence polarization, fluorescein-MLL peptide displacement from menin; FP activity change, % at 61.4 µM; 290,000 tested, under 10 active; AID 1766; inconclusive = falling polarisation curve, or a change in total fluorescence; inactive = total fluorescence flat and polarisation flat or rising; no compound was filed as active; the % refers to the polarisation; negative = inhibition;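 further: % of control where 0% means no effect; inhibitors lower the polarisation; unlabelled MLL peptide was the positive control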
D2 ag = agonists of human D2 dopamine receptor (beta-arrestin) | P14416 | DiscoveRx PathHunter D2 beta-arrestin, luminescence, 90 min; 100% = 57 uM dopamine signal | activation, % (concentration not given with the values) | 0.084% of 360,000 active | AID 624465; in the data active = activation above about 40%; inconclusive = about 15% to 40%; inactive = below about 15%; further: compound concentration not given in the record; the text of the record calls up to 30% inactive
Target sequence (P14416 whole entry, looked up): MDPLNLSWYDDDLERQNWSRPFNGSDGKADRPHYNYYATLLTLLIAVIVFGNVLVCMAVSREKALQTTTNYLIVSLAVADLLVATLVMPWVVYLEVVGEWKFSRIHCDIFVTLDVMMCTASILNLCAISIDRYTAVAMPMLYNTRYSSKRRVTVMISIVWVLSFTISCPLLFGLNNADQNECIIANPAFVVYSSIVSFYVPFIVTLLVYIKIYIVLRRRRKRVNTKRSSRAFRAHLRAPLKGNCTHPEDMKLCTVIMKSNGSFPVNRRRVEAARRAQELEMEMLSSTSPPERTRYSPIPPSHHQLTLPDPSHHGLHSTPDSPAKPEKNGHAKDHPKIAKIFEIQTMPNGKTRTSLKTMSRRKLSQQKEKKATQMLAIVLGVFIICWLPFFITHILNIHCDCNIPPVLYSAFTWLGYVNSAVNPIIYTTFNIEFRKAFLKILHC
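Agonist mode: compounds alone added to overnight-plated D2 PathHunter cells for 90 min at 37 C, with 57 uM final dopamine (EC100) defining full response. Beta-arrestin recruitment detected by chemiluminescent reagent, read after 1 h at ambient temperature.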
The depositor's hits bear a star; ? = inconclusive; . = not tested or not shown; & = joins results of further samples; [ ] = remark or other dose.

SMILES | ClpP mod | gsp antag | gsp agonist | PINK1 expr mod | Sfp inh | Menin-MLL FL inh | D2 ag
Cc1c(C(=O)NCc2nnc(-c3ccccc3)o2)oc2c(F)cccc12 | . | 1% | 0%[15.4 µM] | -0.6% | 13% | . | -3.2
Clc1ccc(-n2c(SC/C=C/c3ccccc3)nnc2-c2cccnc2)cc1 | -0.2% | ? | -5% | -3.0%[38.3 µM] | -24% | -1.1 | -4.2
Cc1ccc(-c2c(C)sc(NC(=O)C3C4CCC(O4)C3C(=O)O)c2C(=O)OC(C)C)cc1 (stereo unspecified) | -9.3% | -11% | 26% | -1.4% | 0% | 1.6 | -1.9
CCN(C(=O)COC(=O)c1cccc(S(=O)(=O)N2CCOCC2)c1)C1CCS(=O)(=O)C1 (stereo unspecified) | -1.0% | 13% | -2% | 0.7% | . | . | -6.4
CCCCCCC=C1CCC(CN2CCCC2)C1=O (stereo unspecified) | -4.0% | . | . | 1.3% | . | . | -6.2
CC(=O)N1c2c(cc(Br)cc2S(=O)(=O)NCc2ccc(C)cc2)CC1C (stereo unspecified) | . | 35µM* | 12%[15.4 µM] | 0.0% | 5% | -0.1 | -0.6
CN1C/C(=C/c2ccccc2[N+](=O)[O-])C(=O)/C(=C\c2ccccc2[N+](=O)[O-])C1 | 1.0% | 4% | -2% | 0.6% | . | . | 6.0
COc1ccccc1NC(=O)C(C)OC(=O)/C=C/c1ccc2ccccc2n1 (stereo unspecified) | -2.9% | -40% | -50% | ? | . | . | -5.3
Cc1ccc(NNC(=O)C2CCC2)cc1C | -0.3% | 9% | 1%[15.4 µM] | -1.5% | -16% | 0.0 | -4.9
CCN(CC)C(=O)Oc1ccc(Br)c2ccccc12 | 1.3% | 2% | ? | 6.2% | -7% | -1.7 | -1.0
CC(C)(CN1CCN(Cc2ccccc2)CC1)NS(=O)(=O)c1ccc(Cl)cc1 | 1.0% | 12% | -2% | 8.1% | 3% | 0.9 | -2.3
COc1ccc(CNC(=O)C2CCC(CNS(=O)(=O)c3cccs3)CC2)cc1 (stereo unspecified) | -4.0% | -5% | -27% | -1.4%&-0.1% | 10% | 0.3 | 8.8
CC(=O)c1sc(NC(=O)C(C)Oc2ccc3c(C)cc(=O)oc3c2)nc1C (stereo unspecified) | -21% | -34% | 30%[15.4 µM] | -0.9% | 13% | . | -1.7
COc1ccc(CSCC(=O)NN=C2CCN(C)CC2)cc1 | . | -5% | 0% | 0.2% | 19% | 1.0 | 8.4
Cc1ccc(S(=O)(=O)N2[C@@H](c3cccc(Cl)c3)C(C(=O)O)=CC[C@H]2c2cccc(C)c2)cc1 | 0.1% | -17% | . | 0.5% | . | . | -1.6
N#Cc1ccc(C(=O)Nc2cc(S(=O)(=O)Nc3ccc(Cl)cc3)ccc2N2CCCCC2)cc1 | -1.1% | -7% | 9% | 8.8% | 22µM* | 4.5 | 1.8
NC(N)=NS(=O)(=O)c1ccc(NC(=S)NC(=O)c2ccc(Br)cc2)cc1 | 1.2% | 2% | -79%[inhibitor] | 10% | -13% | 2.1 | -4.4
CCOc1ccc(CO/N=C/c2c(C)[nH]c(=O)[nH]c2=O)cc1 | -2.1% | 0% | -13% | 0.1% | 1% | 1.1 | -6.7
COc1ccccc1NC(=O)C1CCCN(S(=O)(=O)c2cccc3nsnc23)C1 (stereo unspecified) | 0.0% | -10% | 14% | -0.5% | 19% | 6.8 | -2.2
CN(Cc1ccccc1)C(=O)c1cccc(NC(=O)Cc2ccc(NC(=O)C3CCN(C(=O)C4CCCC4)CC3)cc2)c1 | 0.9% | -20% | . | 1.0% | . | . | 1.8
CC(C)(C)NC(=O)CN(C(=O)CNC(=O)c1cccs1)c1ccccc1F | . | . | 17%[15.4 µM] | 0.7% | 16% | 4.2 | -1.0
O=C(CN(CCc1ccccc1)C(=O)c1csnn1)NCc1ccc(F)cc1 | . | -2% | 11%[15.4 µM] | 1.6% | 10% | 1.1 | -0.6
CN(CC(CC(=O)Nc1nncs1)c1ccccc1)S(=O)(=O)c1ccccc1 (stereo unspecified) | -0.2% | 1% | 5% | -3.4% | -5% | 1.8 | -3.3
CC1(C(=O)Nc2ccc3c(c2)OCO3)CCN1Cc1csc2ccccc12 (stereo unspecified) | 1.3% | . | . | 1.7% | . | . | -5.4
CCn1c(SCC(=O)N/N=C/C(C)=C/c2ccco2)nnc1-c1ccccc1 | -1.3% | -5% | 7% | 8.6%[38.3 µM] | -15% | 3.4 | -0.4
CN(C)c1ncc2nc(-c3cccs3)c(=O)n(C3CC3)c2n1 | . | . | . | 0.0% | 6% | ? | .
CCOc1ccc(N=CC2=C(O)CC(C)(C)CC2=O)cc1 | -2.6% | 3% | -105%[inhibitor] | 1.5% | 13% | 3.7 | -3.1
O=C(OCCOc1ccccc1F)c1cc(S(=O)(=O)N2CCOCC2)ccc1F | . | -15% | -9%[15.4 µM] | 1.1% | . | . | -4.4
CC(=O)/C(C(=N)N1CCN(C(c2ccccc2)c2ccccc2)CC1)=C(\C)O | 2.0% | -1% | -17% | 0.1% | 15% | 1.3 | -5.6
COC(=O)c1ccccc1NC(=S)N1CCN(c2ccccn2)CC1 | -7.9% | -7% | 6% | 3.1% | 14% | 3.2 | -10
CC(=O)/C(=C/c1ccccc1)C(=O)Nc1ccccc1C | -1.9% | -2% | 8% | -2.1% | -11% | -2.2 | -3.6
FC(F)(F)c1ccc(C2Nc3cccc4cccc(c34)N2)cc1 | . | -1% | -51%[inhibitor] | 0.3% | 0% | 3.6 | 14
COc1ccc2[nH]cc(S(=O)(=O)c3ccc(C)cc3)c2c1 | . | -7% | -1% | 0.5% | 19% | 0.7 | -0.8
CCN(CC(=O)Nc1c(F)cccc1F)C(=O)c1nc2nccc(C)n2n1 | -0.5% | 10% | 0% | -0.2% | . | . | -6.7
CCOC(=O)c1ccc(NCc2ccc(N(C)C)cc2)cc1 | -0.7% | -11% | 25% | 0.7% | -22% | 3.1 | 0.1
COc1ccc(NC(=S)N2CCN(C(=O)c3ccco3)CC2)cc1 | . | 6% | 15% | 1.3% | -1% | -3.1 | -2.6
CC1CCN(C(=O)CSc2nc3ccccc3[nH]2)CC1 | 2.3% | 6% | 16% | 7.4%[38.3 µM] | 23% | 3.8 | -2.5
O=C(NCc1ccco1)c1ccc(Cl)c(S(=O)(=O)N2CCc3ccccc32)c1 | -1.8% | -24% | -21% | 2.2% | 8% | 12 | -1.1
CC1CCCCC12NC(=O)N(CC(=O)N1CCN(c3ccccc3)CC1)C2=O (stereo unspecified) | -2.2% | -3% | -31%[inhibitor] | -0.2% | . | . | -2.5
CCCCNC(=O)c1nc(C2CCN(S(=O)(=O)c3ccccc3C(F)(F)F)CC2)oc1-c1ccccc1 | ? | . | . | -0.6% | . | . | -3.0
COc1ccc(C(=O)Nc2ccc3c(c2)OCO3)cc1OC | 0.6% | 9% | -15% | -4.6%[38.3 µM] | -4% | -1.8 | -0.1
C/C(=N\OCc1cccc(C(=O)O)c1)c1ccc(Cl)cc1 | . | -8% | 13%[15.4 µM] | -0.1% | 12% | 9.1 | -1.3
COCCNC(=O)CCCCCNS(=O)(=O)c1ccc(C)cc1 | -0.6% | 2% | -45%[inhibitor] | -1.1% | 17% | -0.4 | 4.6
CCNS(=O)(=O)c1ccc(CCC(=O)NCc2ccccn2)cc1 | -3.4% | 7% | 4% | -0.4% | 13% | -0.8 | -5.5
O=C(CSc1nc2ccccc2o1)Nc1cc(C(F)(F)F)ccc1N1CCOCC1 | 2.4% | -12% | -34%[inhibitor] | -1.4% | -2% | -0.7 | -4.2
Cc1nn(Cc2ccc([N+](=O)[O-])cc2)c(=O)n1-c1ccccc1 | -0.2% | 0% | 16% | -0.9% | 11% | 4.1 | -2.9
CC(N=C(NS(=O)(=O)c1ccc(Cl)cc1)c1ccccc1)C(=O)O (stereo unspecified) | 0.7% | 11% | -6% | -0.8% | 7% | 3.7 | -1.9
CC(C)=CC(=O)OCC(=O)Nc1nc(C)c(Cl)cc1Cl | -0.2% | 5% | -40%[inhibitor] | -1.0% | -21% | 0.4 | -2.4
COc1ccc(S(=O)(=O)N(CCc2ccccc2)CC(=O)O)cc1 | 2.9% | 3% | -1% | -0.3% | 20% | -1.1 | -1.5
CCOC(=O)c1c(C)[nH]c(C(=O)OCc2ccc(F)cc2)c1C | 0.1% | 6% | ? | 3.0% | 10% | . | -0.4
Cc1ccc(NC(=O)c2cc(S(=O)(=O)N3CCOCC3)c(Br)s2)cc1 | -1.9% | -10% | -45% | -2.2% | 6% | 0.3 | 2.5
NC(=O)c1cc([N+](=O)[O-])ccc1Nc1ccccc1 | 0.9% | -15% | . | 0.7% | . | . | -3.5
CCc1cccc(CC)c1N(COC)C(=O)Cn1c(C(C)O)nc2ccccc21 (stereo unspecified) | 1.4% | 2% | -2% | . | 89µM* | 1.6 | -3.4
COc1ccc(C(=O)Nc2ccc(Cl)c(Cl)c2)c(OC)n1 | 46% | 0% | 6% | 6.1% | 11% | 1.0 | 0.8
CCOC(CC(=O)NNC(=O)c1c(-c2ccccc2Cl)noc1C)OCC | -2.5% | -5% | 5% | -1.6% | 6% | -1.3 | -10
Cn1c(SCC(=O)NCc2ccco2)nnc1-c1ccccc1 | -2.7%&-0.6% | -3% | -8% | -1.5%&-0.7% | 2% | 1.5 | -2.4
N#CCCCc1cc2cc(F)ccc2cn1 | 1.3% | 5% | -38%[inhibitor] | -0.1% | . | . | 4.6

One compound at a time, as listed above. Values in the order: ClpP mod, gsp antag, gsp agonist, PINK1 expr mod, Sfp inh, Menin-MLL FL inh, D2 ag
Entry for COc1ccc(S(=O)(=O)N(CCc2ccccc2)CC(=O)O)cc1 → 2.9%, 3%, -1%, -0.3%, 20%, -1.1, -1.5
Entry for COCCNC(=O)CCCCCNS(=O)(=O)c1ccc(C)cc1 → -0.6%, 2%, -45%[inhibitor], -1.1%, 17%, -0.4, 4.6
